Beta apoptosis: inhibitors of cytokine-induced beta cell apoptosis, primary screen, luminescence; INS-1E cytokine-induced death, ATP luminescence, 48 h; percent of positive-control rescue, neutral wells zero; protection from apoptosis, % (concentration not given with the values); 300,000 compounds, 0.8% hits;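 active = all replicates at 75% or more, or half of them and the mean; inconclusive = half reach 75% but not the mean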;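 also: 0% = cytokine-treated negative control wells and 100% = positive control rescue; higher means more ATP so stronger rescue from cytokine killing; wells of about 40 µL received 100 nL stock; the first replicate is given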
RanGTP-Impb inh: inhibitors of RanGTP-importin-beta interaction, primary screen, biochemical, FRET, CFP-Ran, YFP-importin-beta, homogeneous | inhibition, % (test concentration not listed) | AID 2216, 2009 | 300,000 compounds, 1.1% hits | cell-free CFP-Ran/YFP-importin-beta FRET ratio;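 active = most replicates above 15%; inconclusive = exactly half above 15%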;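 also: 0% = DMSO wells and 100% = Ran loaded with GDP instead of GTP; wells of about 40 µL received 100 nL stock; the first replicate is given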
Calb FLC: C. albicans growth inhibition with fluconazole, primary screen, CaCi-2 strain, Alamar Blue fluorescence; C. albicans CaCi-2 (fluconazole-resistant clinical isolate) + fluconazole, 48 h; growth inhibition, % (no concentration beside the values); 300,000 compounds, 0.57% hits;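 active = most replicates above 75%; inconclusive = exactly half above 75%; inactive = most below 75%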;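 also: all wells also contain fluconazole at 8 µg/ml as a sub-toxic cotreatment; 0% = median of DMSO wells and 100% = median of geldanamycin control wells; wells of about 8 µL received 7.5 nL stock; the first replicate is given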
Vif TR-FRET: inhibitors of Vif binding to APOBEC3G peptide, primary screen, biochemical, TR-FRET, GST-Vif 1-94, biotin-A3G peptide, dose response retest (AID 1117319); 260,000 compounds, 0.57% hits; TR-FRET GST-Vif / biotin-A3G peptide binding; higher % means a stronger effect; test concentration not given here; strong numbers were not always called active; Virion infectivity factor (Human immunodeficiency virus type 1 group M subtype B (isolate …; inhibition, %, or IC50 in µM where a hit was titrated;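 active = above the screen mean plus three standard deviations and confirmed in dose response; inconclusive = results disagree or hit not tested in dose response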;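 also: Vif residues 1-94 fused to GST binding biotinylated APOBEC3G peptide 110-148; 0% = full assay without inhibitor and 100% = GST in place of GST-Vif; retest series ran down from 100 µM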
A1 inh: caspase 3/7 activation in MEF A1-2A-BIM cells, primary screen, A1 inhibitor project, cell-based, luminescence, HTS; Caspase-Glo 3/7 luminescence, 3 h; percent of clofoctol response, vehicle zero; caspase activation, % (concentration not given with the values); 330,000 compounds, 0.066% hits; AID 2462, 2010;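 active = over half of replicate activation scores above 10%, or exactly half above 10 with the replicate mean above 10; inconclusive = replicate mean below 10 yet half the replicates above 10; inactive = over half of replicates below 10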;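 also: wells of about 30 µL received 50 nL stock; many hits fall short of the cut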
T cruzi inh: inhibitors of intracellular T. cruzi growth, primary screen, luminescence, NIH3T3 host cells; T. cruzi beta-gal in NIH3T3, 90 h; inhibition, % (test concentration not listed); 300,000 compounds, 1.4% hits;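 active = mean inhibition across valid replicates above about 55%, limit read from the data; inconclusive = mean below that limit but half or more replicates reach it; inactive = mean below it, under half of replicates reach it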;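 also: signal also drops with host cell toxicity which is not excluded here; 0% = plate median of DMSO wells and 100% = zero luminescence signal; higher percent means less beta-gal luminescence so fewer parasites; stock transfer was 50 nL into about 50 µL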
LANA-H2A inh: blockers of LANA interaction with H2A/H2B – biochemical, FP readout, HTS, primary screen; Protein LANA1 (Human herpesvirus 8 type P (isolate GK18)), Q9QR71; cell-free LANA-H2A/H2B peptide, fluorescence polarization; inhibition, % (test concentration not listed); 320,000 compounds, 0.6% hits; AID 2629, 2010; in the data active = inhibition mostly above about 10%, no sharp cut-off; inactive = mostly below about 6.7%;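 also: stock transfer was 7.5 nL into about 10 µL; 0% = median of vehicle wells and 100% = median of positive control wells; one replicate is shown; the record names a cut of 25% in any replicate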
Target sequence (Q9QR71 whole entry, looked up): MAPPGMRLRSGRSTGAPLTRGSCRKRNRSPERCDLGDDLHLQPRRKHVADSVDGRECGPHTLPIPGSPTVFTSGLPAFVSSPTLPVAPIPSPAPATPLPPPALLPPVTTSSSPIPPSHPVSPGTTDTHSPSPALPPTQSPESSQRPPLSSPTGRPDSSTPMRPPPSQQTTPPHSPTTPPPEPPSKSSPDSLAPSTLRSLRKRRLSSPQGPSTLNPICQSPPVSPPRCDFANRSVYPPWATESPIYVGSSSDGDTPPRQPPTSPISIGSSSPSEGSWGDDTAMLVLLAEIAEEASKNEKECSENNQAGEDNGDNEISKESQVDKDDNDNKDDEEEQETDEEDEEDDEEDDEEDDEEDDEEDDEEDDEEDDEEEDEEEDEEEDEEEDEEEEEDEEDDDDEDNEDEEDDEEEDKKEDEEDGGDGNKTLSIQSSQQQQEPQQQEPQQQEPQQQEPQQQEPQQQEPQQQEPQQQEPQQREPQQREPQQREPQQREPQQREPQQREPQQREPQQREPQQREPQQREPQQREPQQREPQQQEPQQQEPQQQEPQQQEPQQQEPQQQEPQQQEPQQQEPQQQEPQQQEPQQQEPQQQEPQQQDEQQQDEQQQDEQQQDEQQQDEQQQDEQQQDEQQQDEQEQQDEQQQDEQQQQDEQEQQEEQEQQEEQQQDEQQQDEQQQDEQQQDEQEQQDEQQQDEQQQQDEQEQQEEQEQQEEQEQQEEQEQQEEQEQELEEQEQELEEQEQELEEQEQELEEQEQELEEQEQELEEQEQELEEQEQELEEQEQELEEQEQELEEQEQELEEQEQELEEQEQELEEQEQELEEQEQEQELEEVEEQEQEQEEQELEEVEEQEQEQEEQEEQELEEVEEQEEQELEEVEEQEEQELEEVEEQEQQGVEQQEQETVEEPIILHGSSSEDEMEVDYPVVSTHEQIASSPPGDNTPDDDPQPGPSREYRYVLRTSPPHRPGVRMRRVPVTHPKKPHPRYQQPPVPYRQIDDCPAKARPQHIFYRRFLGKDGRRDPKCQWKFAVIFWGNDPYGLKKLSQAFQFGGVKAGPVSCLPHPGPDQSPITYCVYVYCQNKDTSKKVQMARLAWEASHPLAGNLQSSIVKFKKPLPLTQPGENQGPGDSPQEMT
AF4-AF9 inh: inhibitors of AF4 peptide binding to AF9, primary screen, biochemical, AlphaScreen, biotin-AF4 peptide, FLAG-AF9, single point; Protein AF-9 (Homo sapiens), P42568; 350,000 compounds, 0.47% hits; inhibition, % at 10 µM; AID 651704, 2012;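 active = every replicate reaching a set inhibition limit, whatever the replicate mean, cut at about 25% in these data; inconclusive = mean inhibition reaches that limit but some replicates miss it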;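 also: 0% = plate neutral control median and 100% = total signal loss; the record names both 10 and 1 µM as test concentration; the first replicate is given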
An asterisk follows results filed as active.

How did COc1cc(OC)cc(-c2ncc3ccccn23)c1 do in these assays?
Beta apoptosis: -1; RanGTP-Impb inh: 8.4; Calb FLC: -6; A1 inh: 0.6; T cruzi inh: 31; LANA-H2A inh: -1.4

How did Nc1ccc(Sc2ccc([N+](=O)[O-])cc2)cc1 do in these assays?
Beta apoptosis: -3; RanGTP-Impb inh: 0.9; Calb FLC: 93*; Vif TR-FRET: 1%; A1 inh: 0.8; T cruzi inh: -1; LANA-H2A inh: 0.0; AF4-AF9 inh: 4.4

How did N/C(=N\OC(=O)c1ccccc1)c1ccn[nH]1 do in these assays?
Beta apoptosis: 0; RanGTP-Impb inh: -1.7; Calb FLC: 22; A1 inh: -7.3; T cruzi inh: -18; LANA-H2A inh: -1.1; AF4-AF9 inh: -8.2

Results for Cn1c(SCC(=O)NCC2CCCO2)nnc1-c1ccc(S(=O)(=O)N2CCCC2)cc1 (stereo not given) ?
Beta apoptosis: 3; RanGTP-Impb inh: -0.3; Calb FLC: 8; Vif TR-FRET: inconclusive; A1 inh: -0.5; T cruzi inh: -1; LANA-H2A inh: 1.0; AF4-AF9 inh: -12

How did COC(=O)c1cccc(S(=O)(=O)N2CCC(C)CC2)c1 do in these assays?
Beta apoptosis: -3; RanGTP-Impb inh: 9.0; Calb FLC: inconclusive; Vif TR-FRET: 12%; A1 inh: -0.2; T cruzi inh: 1; LANA-H2A inh: 2.5

What do the screens show for `O=C(CSCc1c(Cl)cccc1Cl)NCc1ccco1`?
Beta apoptosis: -3; RanGTP-Impb inh: -3.0; Calb FLC: 1; Vif TR-FRET: 13%; A1 inh: -0.1; T cruzi inh: -11; LANA-H2A inh: 0.5

How did COc1ccc(NC(=O)C(NC(C)=O)C(=O)NCc2ccccc2Cl)cc1 (stereo not given) do in these assays?
Beta apoptosis: -4; RanGTP-Impb inh: 5.5; Calb FLC: -4; Vif TR-FRET: -2%; A1 inh: 3.6; T cruzi inh: 4; LANA-H2A inh: 7.0

How did O=C1c2cc(F)ccc2OC2(CCNCC2)C12CC(c1ccccc1)=NO2 (stereo not given) do in these assays?
Beta apoptosis: 4; RanGTP-Impb inh: -1.2; Calb FLC: -14; Vif TR-FRET: -5%; A1 inh: 0.1; T cruzi inh: -23; LANA-H2A inh: 1.8

How did O=c1cc(O)c(-c2ccc(Cl)cc2)c(Cl)[nH]1 do in these assays?
Beta apoptosis: -5; RanGTP-Impb inh: 0.1; Calb FLC: -6; A1 inh: 0.5; T cruzi inh: -7; LANA-H2A inh: -0.2; AF4-AF9 inh: 5.1

How did Cc1ccc(NC(=O)COc2ccccc2CNC(C)(C)CC(C)(C)C)cc1 do in these assays?
Beta apoptosis: 34; RanGTP-Impb inh: 8.7; Calb FLC: -26; Vif TR-FRET: -6%; A1 inh: 1.0; T cruzi inh: 61*; LANA-H2A inh: -3.0

Results for Cc1ccc(Nc2cc(C)c3c(O)cccc3n2)cc1C ?
Beta apoptosis: 23; RanGTP-Impb inh: -3.6; Calb FLC: 0; Vif TR-FRET: 28%; A1 inh: -1.4; T cruzi inh: 66*; LANA-H2A inh: 1.3; AF4-AF9 inh: 5.5

Results for COc1cc(/C=C2\SC(=O)NC2=O)ccc1Oc1ccc([N+](=O)[O-])cc1[N+](=O)[O-] ?
Beta apoptosis: 18; RanGTP-Impb inh: 4.8; Calb FLC: 14; Vif TR-FRET: inconclusive; A1 inh: 0.4; T cruzi inh: 19; LANA-H2A inh: -0.1; AF4-AF9 inh: 2.0

Continued; it opens with the two that closed the last part.
Results for Cc1ccc(Nc2cc(C)c3c(O)cccc3n2)cc1C ?
Beta apoptosis: 23; RanGTP-Impb inh: -3.6; Calb FLC: 0; Vif TR-FRET: 28%; A1 inh: -1.4; T cruzi inh: 66*; LANA-H2A inh: 1.3; AF4-AF9 inh: 5.5

Results for COc1cc(/C=C2\SC(=O)NC2=O)ccc1Oc1ccc([N+](=O)[O-])cc1[N+](=O)[O-] ?
Beta apoptosis: 18; RanGTP-Impb inh: 4.8; Calb FLC: 14; Vif TR-FRET: inconclusive; A1 inh: 0.4; T cruzi inh: 19; LANA-H2A inh: -0.1; AF4-AF9 inh: 2.0

What do the screens show for `O=C(Nc1ccc(S(=O)(=O)N2CCOCC2)cc1)c1ccccc1`?
Beta apoptosis: -5; RanGTP-Impb inh: 1.7; Calb FLC: -17; A1 inh: 0.4; T cruzi inh: -4; LANA-H2A inh: 6.6

Results for COCCNC(=S)N(CCCO)Cc1cc2cc3c(cc2[nH]c1=O)OCCO3 ?
Beta apoptosis: 0; RanGTP-Impb inh: -2.0; Calb FLC: -13; A1 inh: 0.4; T cruzi inh: -14; LANA-H2A inh: -0.2; AF4-AF9 inh: 2.5

How did COc1cc(OC)c(NC(=O)[C@@H]2CCC(=O)N2C2OC(=O)c3c2ccc(OC)c3OC)cc1Cl (stereo not given in full) do in these assays?
Beta apoptosis: 0; RanGTP-Impb inh: -0.8; Calb FLC: -4; A1 inh: 0.9; T cruzi inh: -2; LANA-H2A inh: -1.1; AF4-AF9 inh: -0.8

What do the screens show for `Cc1ccc(C(=O)NCC(=O)OCC(=O)c2ccc(Cl)s2)cc1`?
RanGTP-Impb inh: 2.7; Calb FLC: 0; Vif TR-FRET: -3%; A1 inh: -0.2; T cruzi inh: -4; LANA-H2A inh: 3.1; AF4-AF9 inh: -1.6

How did Cc1cc(C)cc(NC(=O)C(OC(=O)c2ccc([N+](=O)[O-])o2)c2ccccc2)c1 (stereo not given) do in these assays?
Beta apoptosis: -3; RanGTP-Impb inh: 5.9; Calb FLC: 0; Vif TR-FRET: 5%; A1 inh: -0.2; T cruzi inh: 7; LANA-H2A inh: 0.3

How did COc1ccccc1N1CCN(C(=S)NC(=O)/C=C/c2ccc(F)cc2)CC1 do in these assays?
Beta apoptosis: -6; RanGTP-Impb inh: 0.1; Calb FLC: 21; Vif TR-FRET: 9%; A1 inh: 1.2; T cruzi inh: 12; LANA-H2A inh: 3.2; AF4-AF9 inh: 1.8

What do the screens show for `COc1ccc(S(=O)(=O)N(C)C)cc1NC(C)C(=O)Nc1cccc(C#N)c1` (stereo not given)?
Beta apoptosis: -6; RanGTP-Impb inh: 0.4; Calb FLC: 5; Vif TR-FRET: -1%; A1 inh: 0.4; T cruzi inh: -4; LANA-H2A inh: -4.1; AF4-AF9 inh: 2.7

What do the screens show for `COc1ccc(C(=O)Nc2ccc(Cl)cc2C(=O)NCCN2CCOCC2)cc1`?
Beta apoptosis: -5; RanGTP-Impb inh: -1.6; Calb FLC: -6; Vif TR-FRET: -3%; A1 inh: 0.8; T cruzi inh: 5; LANA-H2A inh: 2.9

Results for Cc1ccc(C)c(S(=O)(=O)NCC(c2ccc3c(c2)OCO3)N2CCOCC2)c1 (stereo not given) ?
Beta apoptosis: -1; RanGTP-Impb inh: 4.6; Calb FLC: -5; Vif TR-FRET: 3%; A1 inh: 0.3; T cruzi inh: 8; LANA-H2A inh: -10; AF4-AF9 inh: -0.1

What do the screens show for `COc1ccc(-n2c(C)nc3cc(C(=O)NCCN4CCOCC4)ccc32)cc1`?
Beta apoptosis: 0; Calb FLC: -6; Vif TR-FRET: -1%; A1 inh: 0.1; T cruzi inh: 1; LANA-H2A inh: -3.1

Results for Cc1csc(SCC(=O)Nc2ccc(F)cc2Cl)n1 ?
Beta apoptosis: -6; A1 inh: 0.3; LANA-H2A inh: -1.2; AF4-AF9 inh: 2.2

How did CC1CN(CCOCCSc2ccccc2)CC(C)O1 (stereo not given) do in these assays?
Beta apoptosis: 3; RanGTP-Impb inh: 1.8; Calb FLC: -7; A1 inh: 0.8; T cruzi inh: 51; LANA-H2A inh: 1.8; AF4-AF9 inh: -6.4

How did CCOC(=O)c1oc2ccccc2c1NC(=O)c1ccc(Cl)s1 do in these assays?
RanGTP-Impb inh: -1.7; Calb FLC: -2; Vif TR-FRET: inconclusive; A1 inh: -0.8; T cruzi inh: 13; LANA-H2A inh: -0.4; AF4-AF9 inh: 0.2

Results for Cc1ccc(NC(=O)C(C)c2cccc(C(=O)c3ccccc3)c2)cc1O (stereo not given) ?
Beta apoptosis: 37; RanGTP-Impb inh: -3.5; Calb FLC: -8; Vif TR-FRET: -1%; A1 inh: -0.6; T cruzi inh: -14; LANA-H2A inh: -1.5; AF4-AF9 inh: -0.9

What do the screens show for `CCOC(=O)C1=C(O)C(Nc2nc3ccccc3s2)(C(F)(F)F)N=C1C` (stereo not given)?
Beta apoptosis: -3; RanGTP-Impb inh: 4.6; Calb FLC: 4; Vif TR-FRET: 2%; A1 inh: 0.5; T cruzi inh: -6; LANA-H2A inh: -0.9

How did O=C(O)CCCC(=O)NCc1ccccn1 do in these assays?
Beta apoptosis: -4; RanGTP-Impb inh: -3.3; Calb FLC: 7; Vif TR-FRET: 5%; A1 inh: 1.0; T cruzi inh: -1; LANA-H2A inh: -3.0

How did CN1CCc2nc(NC(=O)COc3ccc4ccccc4c3)sc2C1 do in these assays?
Beta apoptosis: 10; RanGTP-Impb inh: 7.7; Calb FLC: 20; Vif TR-FRET: 5%; A1 inh: 0.4; T cruzi inh: -6; LANA-H2A inh: -5.0; AF4-AF9 inh: 2.7

How did CC(=O)Nc1cccc(Oc2ncccc2[N+](=O)[O-])c1 do in these assays?
Beta apoptosis: -7; RanGTP-Impb inh: -0.1; Vif TR-FRET: 11%; A1 inh: -0.1; T cruzi inh: -8; LANA-H2A inh: -1.0; AF4-AF9 inh: 0.1

How did Cc1ccc(S(=O)(=O)N(C)c2ccc(OCC(=O)Nc3ccc(C(=O)N(C)C)cc3)cc2)cc1C do in these assays?
Beta apoptosis: -3; A1 inh: 1.1; LANA-H2A inh: -1.7; AF4-AF9 inh: 2.8

What do the screens show for `CCOC(=O)C1=C(CP(=O)(c2ccccc2)c2ccccc2)NC(=O)NC1c1ccc(OC)cc1` (stereo not given)?
Beta apoptosis: -5; RanGTP-Impb inh: 1.6; Calb FLC: 17; Vif TR-FRET: 0%; A1 inh: 1.0; T cruzi inh: 4

Results for COc1ccc(-c2ccc([C@H]3[C@H]4C=CC[C@@H](C)[C@@H]4C(=O)N3Cc3ccccc3)c(F)c2)cc1 ?
Beta apoptosis: 69; RanGTP-Impb inh: 0.9; Calb FLC: -11; A1 inh: -1.0; T cruzi inh: 39; LANA-H2A inh: 1.2; AF4-AF9 inh: -0.6

What do the screens show for `Cc1ccccc1NC(=O)C1Cc2ccccc2CN1C(=O)c1ccco1` (stereo not given)?
Beta apoptosis: -2; RanGTP-Impb inh: 3.5; Calb FLC: -9; Vif TR-FRET: 2%; A1 inh: 1.5; T cruzi inh: -7; LANA-H2A inh: 3.1; AF4-AF9 inh: -7.0
